NS1 function inh: qHTS Assay for Inhibitors of Influenza NS1 Protein Function. S. cerevisiae slowed by influenza A NS1, growth recovery by OD600. Potency, µM (highest dose often 46.1 µM), for the others: at the top dose activity, positive = more growth. hit rate 0.4% among 270,000. AID 2326, 2010; active means well fitted rising curve with a large enough effect; inconclusive means small, poorly fitted or top-dose-only effect; inactive means no such curve, though single readings can be large or run the other way; further: nearly all actives have a fitted effect of over 50% in size
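Recovery from NS1-induced slow growth read by OD600 in budding yeast switched to galactose assay medium (pH 6.0, -URA) at 1:100 dilution. Compound 23 nl per well; the matching strain lacking NS1 serves as control.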
2A StopGo: High Throughput Screening for Foot and Mouth Disease Virus Antivirals | hit rate 1.2% among 410,000 | human cells with a luciferase reporter of 2A StopGo recoding; control for the full effect not named in the record | Potency, µM (highest dose often 57.9 µM), for inactives: at the highest dose signal change, negative = less light | AID 1159524, 2015; active = well fitted falling curve with a large enough effect; inconclusive = small, poorly fitted or top-dose-only effect; inactive = no such curve, though single readings can be large or run the other way; tested in HEK293T cells; further: on the % scale 0 is the no-effect control and ±100 the full control effect; nearly all actives have a fitted effect of over 45% in size; luciferase light after 4 h
Cruzain noTriton: qHTS Assay for Promiscuous and Specific Inhibitors of Cruzain (without detergent) | Potency, µM, inactives show max response, negative = inhibition, most hits filed as inhibitors | hit rate 2.3% among 200,000 | purified cruzain, Z-FR-AMC fluorescence, no detergent | AID 1476, 2009 | Cruzipain (Trypanosoma cruzi), P25779;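 further: plate controls were enzyme without inhibitor for no effect and buffer without enzyme for full effect; nearly all actives have a fitted effect of over 40% in size; top concentration of the series not given in the record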
Target sequence (P25779 123-467 limits assumed): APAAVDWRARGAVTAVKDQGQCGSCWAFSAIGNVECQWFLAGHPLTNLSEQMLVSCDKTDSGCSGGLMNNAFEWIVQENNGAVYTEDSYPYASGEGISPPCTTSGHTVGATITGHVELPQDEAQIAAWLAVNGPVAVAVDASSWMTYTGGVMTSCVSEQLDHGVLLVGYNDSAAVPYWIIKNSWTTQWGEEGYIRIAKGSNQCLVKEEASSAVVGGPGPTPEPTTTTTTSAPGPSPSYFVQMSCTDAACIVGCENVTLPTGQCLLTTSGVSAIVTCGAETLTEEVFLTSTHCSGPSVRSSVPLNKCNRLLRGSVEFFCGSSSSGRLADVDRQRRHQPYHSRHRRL
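Purified cruzain at 1.5 nM, pre-incubated 15 min with compound at room temperature in 100 mM sodium acetate pH 5.5, 5 mM DTT, 0.00005% Triton X-100. Reaction started with 2 uM Z-FR-AMC; AMC fluorescence increase over 60 s gives rate.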
Marburg entry inh: qHTS for inhibitors of binding or entry into cells for Marburg Virus; hit rate 1.8% among 300,000; Marburg virus pseudotyped entry inhibition, cell reporter; control for the full effect not named in the record; about a third of the inactives were read at about 46 µM; Potency, µM (doses to about 37.8 µM), without a hit: at the highest dose activity change, negative = inhibition, hits mostly inhibitors; AID 540276, 2011; active = well fitted inhibition curve with a large enough effect; inconclusive = small, poorly fitted or top-dose-only effect, or effect the other way; inactive = flat fitted curve, though single readings scatter; tested in HEK293 cells; about a fifth of its hits are not listed in these tables; further: on the % scale 0 is the no-effect control and ±100 the full control effect; luciferase read-out
SARS PLP yeast: qHTS of Yeast-based Assay for SARS-CoV PLP. S. cerevisiae expressing SARS-CoV PLpro, growth rescue; control for the full effect not named in the record. hit rate 0.19% among 330,000. Potency, µM (titrated, usually from 32.9 µM), inactives show top-dose activity, positive = growth rescue; active means well fitted rising curve with a large enough effect; inconclusive means small, poorly fitted or top-dose-only effect; inactive means no such curve, though single readings can be large or run the other way; further: 0% is about no effect; nearly all actives have a fitted effect of over 55% in size; growth read by luminescence after 48 h
LASV entry inh: qHTS for Inhibitors of binding or entry into cells for Lassa Virus; Lassa virus pseudotype entry inhibition, cell reporter; control for the full effect not named in the record; Potency, µM (doses to about 37.9 µM), inactives show at the highest dose activity change, negative = inhibition, actives largely listed as inhibitors; hit rate 1.2% among 300,000; active means well fitted inhibition curve with a large enough effect; inconclusive means small, poorly fitted or top-dose-only effect, or effect the other way; inactive means flat fitted curve, though single readings scatter; tested in HEK293 cells; further: on the % scale 0 is the no-effect control and ±100 the full control effect; nearly all actives have a fitted effect of over 50% in size; luciferase read-out
Cruzain inh Det: qHTS Assay for Promiscuous and Specific Inhibitors of Cruzain (with detergent); Cruzipain (Trypanosoma cruzi), P25779; purified cruzain, Z-FR-AMC fluorescence, 0.01% Triton; Potency, µM, for inactives: max response, negative = inhibition, usual class: inhibitors; hit rate 0.43% among 200,000; AID 1478, 2009;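 further: plate controls were neutral wells for no effect and buffer without enzyme for full effect; nearly all actives have a fitted effect of over 40% in size; top concentration of the series not given in the record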
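Purified cruzain (1.5 nM final) was preincubated with compounds for 15 min at room temperature in 100 mM sodium acetate pH 5.5, 5 mM DTT, 0.01% Triton X-100. Reaction started with 2 uM Z-FR-AMC; AMC fluorescence change over 60 s gave activity.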
RE007 growth inh: qHTS Assay for Inhibitors of the HIV-1 protein Vpr; Potency, µM (series often up to 92.2 µM), inactives show at the highest dose activity change, negative = less growth; S. pombe RE007 Vpr strain, BacTiter-Glo ATP luminescence, 24 h; control for the full effect not named in the record; hit rate 0.21% among 360,000; AID 651644, 2012; active = well fitted falling curve with a large enough effect; inconclusive = small, poorly fitted or top-dose-only effect; inactive = no such curve, though single readings can be large or run the other way;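 further: on the % scale 0 is the no-effect control and ±100 the full control effect; nearly all actives have a fitted effect of over 50% in size; the assay follows cell death caused by Vpr and the record does not say whether a fall means rescue or toxicity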
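Fission yeast RE007 carrying one integrated HIV-1 vpr copy, seeded at OD 0.01 in PMG+AL medium with 23 nL pinned compound. Grown 24 h at 30 degrees; viability read by BacTiter-Glo luminescence after 5 min.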
An asterisk follows results filed as active; u = inconclusive; x = not tested or not shown; [ ] = dose if it differs, or a comment. Unless noted, the call rests on the fitted dose curve; in most records, active means well fitted curve in the direction sought with a large enough effect; inconclusive means small, poorly fitted or top-dose-only effect, or another doubt; inactive means no such curve, though single readings can be large; an effect the other way counts as inactive or inconclusive. Potency means the concentration at half of the fitted maximal effect.

SMILES	NS1 function inh	2A StopGo	Cruzain noTriton	Marburg entry inh	SARS PLP yeast	LASV entry inh	Cruzain inh Det	RE007 growth inh
CC(C)C[C@@H]1NC(=O)[C@H](C(C)C)NC(=O)c2cc([N+](=O)[O-])cc(I)c2OCC[C@@H](C(N)=O)NC1=O	u	-3.1%	u	-5.1%	0.7%	2.6%	-8.6%	-8.2%
CC(Oc1ccccc1)C(=O)N1CCN(c2ccc(N3CCCCC3)nn2)CC1 (configuration not stated)	x	-23.3%	x	3.2%	-2.9%	9.4%	x	1.7%
O=C(O)c1ccccc1C(=O)Nc1ccc(Oc2cccc3ccccc23)cc1	13.0%	u	x	u	-1.9%	u	x	28.8%
CC(=NCc1ccco1)c1c(O)n(Cc2ccccc2)c(=O)[nH]c1=O	-8.1%	-20.4%	6.0%	u	1.6%	u	1.5%	2.1%
COc1cc(NC(=O)CN2C(=O)NC(C)(CCC(C)C)C2=O)cc(OC)c1 (configuration not stated)	-1.1%	-9.3%	-0.9%	u	2.1%	-17.4%	-0.1%	-2.4%
CCCCc1ccc(NC(=S)N2CCCC(CO)C2)cc1 (configuration not stated)	14.7%	37.0%[activator]	10.0%	u	13.4%	10.8%	-4.1%	-14.2%
COC(=O)c1ccccc1NC(=O)c1nc(-c2ccc(C)cc2)n2c1CCCCC2	x	-27.0%	11.6%	x	x	u	-1.5%	x
COc1cccc2cc(C(C)OC(=O)Nc3ccc(C)cc3)oc12 (configuration not stated)	0.2%	6.0%	x	26.1%[46.1 µM]	-0.8%	-6.4%[46.1 µM]	x	-6.8%
Cc1cccn2c(=O)c3cc(C(=O)NCc4ccc(F)cc4)c(=N)n(CC4CCCO4)c3nc12 (configuration not stated)	5.0%	-28.3%	x	x	-6.1%	x	x	-2.7%
Cc1[nH]c(C)c(S(=O)(=O)Nc2ccc(OC(F)(F)F)cc2)c1C(=O)N1CCCCC1	3.2%	-18.0%	x	x	-3.0%	x	x	5.3%
CCOC(=O)c1c(-c2ccccc2)oc2ccc(NS(=O)(=O)c3ccc(OC)cc3)cc12	x	39.7%[activator]	u	u	x	u	-3.8%	x
CSc1nnc(-c2ccccc2)n1N	0.9%	18.6%	-2.5%	17.2%	1.1%	-12.0%	6.0%	-11.4%
Cc1cccc2cc(C#N)c(N3CCCC3)nc12	-8.9%	-3.9%	9.3%	-17.3%	-4.3%	-5.0%	-4.5%	-15.1%
CCn1c(SC)nnc1-c1nnc(SC)n1CC	12.8%	-11.3%	-6.8%	-4.0%[46.1 µM]	2.2%	-0.3%	-5.9%	7.3%
Cc1sc2c(=O)n3c(nc2c1C(=O)NCCCN1CCOCC1)CCCCC3	-7.0%	-8.7%	-18.6%	4.5%	-4.2%	1.9%	-2.5%	-17.2%
CCCCn1c(SCC(=O)Nc2cccc(C)n2)nnc1-c1ccco1	-11.9%	-17.6%	2.6%	-18.4%	2.7%	-25.5%	-0.8%	11.6%
Cc1ccc(-c2csc3ncn(-n4c(C)ccc4C)c(=O)c23)o1	2.1%	-21.6%	-8.6%	-3.8%	-18.5%	-2.5%	-3.9%	-5.3%
O=C1CC(N2CCN(Cc3ccccc3)CC2)C(=O)N1c1ccccc1 (configuration not stated)	1.6%	11.4%	-4.7%	17.4%	-4.6%	-4.6%	6.8%	-5.0%
Cc1ccc(C2Cc3cc(O)c(O)cc3CN2)cc1 (configuration not stated)	x	-0.4%	x	-0.2%[46.1 µM]	x	-10.4%	x	-6.9%
COc1ccccc1-c1nc(C#N)c(N2CC(C)CC(C)C2)o1 (configuration not stated)	1.7%	1.3%	x	x	0.9%	x	x	8.4%
C/C(CC(=O)Nc1ccc(N(C)C)cc1)=N\NC(=O)C(=O)NCc1ccccc1	x	21.2%	x	34.7%[46.1 µM]	-1.8%	2.0%[46.1 µM]	x	-18.4%
COc1cccc(-c2cc(C(=O)Nc3cc(C)n(Cc4ccc(Cl)cc4)n3)no2)c1	0.2%	u	-8.7%	u	-7.2%	-29.4%	2.6%	-6.5%
COc1ccc(Cl)cc1N1Cc2ccccc2C1	11.7%	-21.4%	25.1µM*	-9.2%	0.7%	-18.9%	-4.0%	98.4%
CN(NC(=O)c1ccc(Cl)cc1Cl)C1=NS(=O)(=O)c2ccccc21	-1.0%	-16.9%	x	x	0.8%	x	x	-3.1%
CCOc1ccc(CCNC(=O)COC(=O)c2cccnc2OCC)cc1OCC	-3.5%	32.2%[activator]	6.9%	17.0%	-1.1%	-3.8%	3.0%	-9.2%
Cc1ccc(/C=C(\C#N)C(=O)NCCN2CCOCC2)cc1	x	-2.9%	x	-15.1%[46.1 µM]	-3.0%	16.2%[46.1 µM]	x	15.6%
COC(=O)C1=C(O)/C(=C/c2cccc(OC)c2O)N=C1C	4.3%	52.2%[activator]	x	x	-1.0%	x	x	-3.7%
CSc1nnc(C)c(=O)n1COC(=O)/C=C/c1ccccc1	x	u	x	-11.7%[46.1 µM]	0.3%	22.9%[46.1 µM]	x	22.3%
COC(=O)CSc1nc(N)c2c3c(sc2n1)C(c1ccccc1)SC(c1ccccc1)C3 (configuration not stated)	6.7%	0.0%	12.6µM*	u	8.1%	-3.3%	u	7.4%
O=C(CCCOc1ccccc1)Nc1ccc(S(=O)(=O)N2CCOCC2)cc1	-4.6%	-14.1%	-0.5%	-1.1%	1.6%	-4.7%	-5.6%	-1.2%
COc1cc(OC)c2c(-c3cccc(-c4ccc(OC)c(F)c4)c3)cc(=O)oc2c1	x	-8.3%	31.6µM*	x	-2.8%	x	0.0%	-4.0%
Cc1ccc(N2C(=O)CSC23C(=O)N(Cc2ccccc2F)c2ccccc23)cc1F (configuration not stated)	x	u	-5.8%	x	x	u	-8.9%	x
COC(=O)c1c(NC(=O)CN2C(=O)C(=O)N(CC(C)C)C2=O)sc(C)c1C	-10.9%	-10.2%	x	-0.7%	1.2%	4.4%	x	4.1%
CC1CCc2c(sc3nc(CN4CCOCC4)nc(N4CCc5ccccc5C4)c23)C1 (configuration not stated)	1.1%	-17.3%	-8.2%	u	-11.9%	-11.3%	-3.0%	10.8%
Cc1nc2ncnn2c(C)c1CCC(=O)N1CCN(C(=O)c2ccco2)CC1	-1.6%	2.2%	-5.0%	3.8%	13.3%	6.3%	6.1%	6.6%
Cc1ccc(C2(C)NC(=O)N(CC(=O)NCc3cccs3)C2=O)cc1 (configuration not stated)	21.3%	13.5%	-7.5%	16.0%	u	21.1%	3.2%	-21.5%
CCN(CC)S(=O)(=O)c1ccc(/C=C/C(=O)O)cc1	x	31.9%[activator]	x	-18.9%[46.1 µM]	3.3%	u	x	-10.3%
Oc1ccc(N2CCN(c3ncnc4sc(-c5ccccc5)cc34)CC2)cc1	x	u	x	u	-0.5%	u	x	28.9%
CCN(CC)c1ccc2cc(-c3nc4ccccc4[nH]3)c(=O)oc2c1	-2.9%	4.47µM*	-16.9%	u	-2.4%	u	-16.3%	-5.3%
CCOc1ccc(NC(=O)CN2C(=O)CSC2=O)cc1	2.0%	-25.4%	x	x	-0.9%	-64.3%[46.1 µM]	x	-9.5%
CSc1nc2ccc(NS(=O)(=O)c3c(Cl)cccc3Cl)cc2s1	-45.0%	34.9%[activator]	u	-7.2%	-76.6%	-1.8%	-10.4%	-11.4%
O=C(Nc1ccc(F)cc1)Nc1ccccc1N1CCCCC1	-2.1%	u	x	x	-0.3%	x	x	1.2%
CC12CC3(C)CC(C)(C1)CC(C(=O)NCc1cccnc1)(C2)C3	-14.9%	-2.3%	x	-2.4%	-2.0%	-14.6%	x	7.9%
CCOC(=O)[C@H]1[C@H]2COc3ccc(C)cc3[C@@H]2N2C(=O)CN(Cc3ccc(OC)cc3)C(=O)[C@@]12C	x	-23.4%	x	3.9%	-0.7%	x	x	4.0%
O=C(O)CCSc1nnc(COc2cccc3ccccc23)n1-c1cccc(Cl)c1	x	6.3%	x	u	-0.5%	12.2%[46.1 µM]	x	12.3%
COc1ccc(CCN(C)C2CC(=O)N(c3ccccc3)C2=O)cc1OC (configuration not stated)	-86.9%	-4.8%	x	9.9%	-4.4%	2.8%	x	6.31µM*
CC1CCCC(NC(=O)C2CC(=O)N(Cc3ccccc3)C2)C1C (configuration not stated)	9.5%	-2.0%	x	2.1%[46.1 µM]	u	-5.4%[46.1 µM]	x	0.2%
COc1cccc(-c2nnc(SCC(=O)N(C)c3ccccc3)o2)c1	x	-5.0%	1.3%	15.9%[46.1 µM]	x	-1.5%[46.1 µM]	-2.1%	x
CCCCCC(=O)Nc1cc(S(=O)(=O)N2CCCCC2)ccc1N1CCOCC1	5.0%	-7.7%	x	3.0%	-3.0%	-3.4%	x	-3.9%
COCCN(C(=O)c1cc(S(=O)(=O)N2CCCCC2)ccc1Cl)c1c(N)n(CC(C)C)c(=O)[nH]c1=O	x	-10.4%	x	-0.7%[46.1 µM]	-0.8%	-13.0%	x	-12.6%
COc1ccc(Cl)cc1NC(=O)CC(C)=O	0.4%	-12.2%	-6.0%	-2.6%	-15.2%	u	3.1%	-16.2%
CCOc1cccc(C(=O)Nc2cc(C)ccc2NC(=O)c2ccco2)c1	9.5%	-14.5%	x	x	-2.5%	x	x	-3.8%
Cc1nn(CC(=O)c2ccc(Cl)s2)c(C)c1[N+](=O)[O-]	x	38.3%[activator]	x	u	-1.0%	-7.7%	x	7.3%
O=C(NCCNC(=O)c1ccco1)c1ccc(Cl)c(Cl)c1	-2.4%	-3.6%	x	-20.1%[46.1 µM]	-1.4%	21.5%[46.1 µM]	x	-8.1%

Screening results deposited in PubChem by National Center for Advancing Translational Sciences (NCATS).
